Assay outcomes: PubChem, NMMLSC
Autofluor counter – counter-screen for toxin protease inhibitors: compound fluorescence. compound autofluorescence counterscreen, microsphere flow cytometry; active compounds read high. fluorescence intensity (concentration not given with the values). 3.1% of 360,000 active. AID 624483;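 active = at least 3 SD above the mean of all compounds, about 16000 in these data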;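 note: 100 nL of 1 mM stock went into each well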
* hit, by the source's call. This is a subset; the hit share may differ from the screen's.

nr	canonical_smiles	Autofluor counter
1	COc1ccc(N(CC(=O)NC2CC3CCC2C3)S(=O)(=O)c2ccc(C)cc2)cc1Cl (stereo unspecified)	3547
2	COc1cc(C(=O)NC2CC2)cc(OC)c1OC	5648
3	COc1cccc(S(=O)(=O)Nc2ccc3c(c2)[C@H]2C[C@H](CC(=O)N[C@@H](C)c4ccccc4)O[C@H](CO)[C@H]2O3)c1	3373
4	Cc1ccccc1N1CCN(C(=O)c2cc(-c3ccccc3)nc3c2cnn3C(C)C)CC1	3609
5	CCCC1NC(=O)c2cc3ccccc3cc2-n2c1nc1ccc(F)cc1c2=O (stereo unspecified)	3856
6	CN(C)C(=O)c1cc2c(c(-c3cccc(-c4ccccc4F)c3)n1)[C@@H](CCO)N(S(C)(=O)=O)C2	5522
7	CC1=C(C(=O)N2CCOCC2)CC(CC(=O)NC2CC2)C(=O)N1Cc1ccc(F)cc1 (stereo unspecified)	5866
8	CC1=C2C3OC(=O)C(C)C3CCC2(C)C=C(Br)C1=O (stereo unspecified)	3757
9	COCOCCn1cc(CN2CCS(=O)(=O)N(Cc3ccc(-c4ccc(OC)cc4)cc3)C(C(C)C)C2=O)nn1 (stereo unspecified)	3531
10	OCC[C@@H]1C[C@H](O)[C@@H](O)[C@@]2(OCCc3cc(Cl)ccc32)O1	6163
11	CC(C)C[C@H]1CNC(=S)N1CC1CCCN1C[C@H](Cc1ccccc1)N1C[C@H](Cc2ccccc2)N(CC2CCCCC2)C1=S (stereo partly specified)	5862
12	COc1cc(Cl)ccc1OC1(C)CCN(Cc2ccc3ccccc3c2)C1 (stereo unspecified)	3558
13	Cc1ccc(-c2nc3ccc(C)cn3c2Cc2ccccn2)cc1	4396
14	Cc1ccccc1-c1csc(C(O)c2cccnc2)n1 (stereo unspecified)	3663
15	CN(C(=O)c1cc2c(cc1Br)OCO2)c1cccc2ccccc12	2837
16	O=C(NCc1ccccc1Cl)c1csc([C@H]2C[C@H](O)[C@@H](CO)O2)n1	3602
17	Cc1ccc(S(=O)(=O)N2C[C@H]3[C@H]4C(=O)N(C)C(=O)[C@H]4CC(=O)[C@H]3[C@@H]2c2ccccc2F)cc1	5700
18	CC(C)C[C@@H](CN1CCC[C@H]1CN1C(=O)C(=O)NC[C@@H]1Cc1ccc(O)cc1)N1C[C@H](Cc2ccccc2)N(CC2CCCCC2)C(=O)C1=O	4709
19	COc1cccc(Nc2nc(C(C)N)cs2)n1 (stereo unspecified)	3909
20	CC(C)NC(=O)N1Cc2cc(C(=O)NC3CCCCC3)nc(-c3cccc(-c4cccnc4)c3)c2[C@@H]1CCO	5746
21	CC(C)(C)OC(=O)N1CCN(C(=O)c2[nH]c(C(F)(F)F)nc2-c2ccccc2)CC1	5718
22	Cc1onc(-c2ccccc2Cl)c1C(=O)NCc1nnnn1-c1ccc(F)c(F)c1	2973
23	O=C(NCc1cc(Cl)cc(Cl)c1)c1csc(COCCO)n1	3915
24	C[C@@H]1CN([C@H](C)CO)C(=O)CCCn2nncc2CO[C@H]1CN(C)C(=O)OCc1ccccc1	3881
25	O=C(Nc1ccc(Cl)cc1)C1Cc2c(-c3ccc(Cl)cc3)ccnc2O1 (stereo unspecified)	3633

As entered above.
Autofluor counter with compound 14 : 3663
Autofluor counter with compound 18 : 4709
Autofluor counter with compound 6 : 5522
Autofluor counter with compound 2 : 5648
Autofluor counter with compound 25 : 3633
Autofluor counter with compound 23 : 3915
Autofluor counter with compound 17 : 5700

Next section.
nr	canonical_smiles	Autofluor counter
26	C#Cc1ccc(NC(=O)C2(C)CCN2C(=O)c2cc(C)n(C)n2)cc1 (stereo unspecified)	3764
27	COc1ccc(C(=O)Nc2ccc3nc(C)sc3c2)cc1S(=O)(=O)N1CCOCC1	4155
28	NCCCCC(C(=O)O)N(C(=O)OCc1ccccc1)C(=O)OCc1ccccc1 (stereo unspecified)	4321
29	CCCCCCC(=O)Oc1cccc(C2=CC(=O)CC(C)(C)C2=O)c1	3340
30	COc1ccc(-c2cc(NC=O)c3ncc(-c4ccccc4)n3c2)cc1OC	4187
31	COc1ccc(NC(=O)C2Cc3c(-c4ccc(NC(C)=O)cc4)ccnc3O2)cn1 (stereo unspecified)	4158
32	Cc1cccc(C)c1N1CCN(C(c2cc3ccccc3o2)c2nnnn2C(C)(C)C)CC1 (stereo unspecified)	6400
33	COC(=O)[C@]12CCCCC=C1N(CCC1=CCCCC1)C(=O)[C@H](CC(=O)N1CCN(C(=O)C3CC3)CC1)C2	5223
34	CCCCn1nnnc1-c1nc2ccccc2[nH]c1=O	6306
35	O=C(Nc1ccc(Cl)cc1)c1csc(COCCO)n1	3777
36	Cc1cccc(S(=O)(=O)NC(=O)C2(C)CCN2C(=O)Cc2cccs2)c1 (stereo unspecified)	3608
37	COc1cc(OC)nc(Nc2nc(C(N)c3ccccc3Cl)cs2)n1 (stereo unspecified)	3898
38	CNc1cc(-c2ccc(OC)c(OC)c2)ncn1	2950
39	C[C@H]1CN([C@@H](C)CO)S(=O)(=O)c2ccc(-c3cccc(F)c3)cc2O[C@@H]1CN(C)C	2962
40	CN(CC(=O)Nc1ccc(Cl)c(Cl)c1)CC(=O)N1CCCCCC1	3769
41	CC(=O)Nc1nc2[nH]ccc2c(=O)[nH]1	3430
42	C[C@@H]1CN([C@@H](C)CO)C(=O)CCCn2nncc2CO[C@H]1CN(C)C(=O)Oc1ccc2ccccc2c1	2907
43	CCNC(=O)C1(C)CCN(Cc2ccccc2C#N)C1 (stereo unspecified)	4005
44	Cc1ccc(S(=O)(=O)N2C[C@H]3C(=O)C[C@@H](c4ccccc4)N(S(=O)(=O)c4ccc(C)cc4)[C@H]3C[C@H]2c2ccccc2)cc1	3273
45	Cc1cc2nc(C(C)(C)C)c(Cc3cccc(F)c3)n2c(C)c1Br	5189
46	CCOC(=O)[C@]12CCC=C1N(Cc1ccc(Cl)cc1Cl)C(=O)[C@H](CC(=O)NCCCOC)C2	4417
47	CNC(C)C(=O)NC(C(=O)NC(C)C(=O)NNc1ccccc1)C(C)C (stereo unspecified)	3588
48	COc1cccc(S(=O)(=O)N(C)C[C@@H]2Oc3cc(C#CCN(C)C)ccc3S(=O)(=O)N([C@H](C)CO)C[C@@H]2C)c1	4367
49	O=C(CSc1nc2ccccc2c(=O)n1-c1ccc(Cl)c(Cl)c1)Nc1ccc2c(c1)CCC2	3642
50	CCN1C(c2ccc(F)cc2)=CS/C1=C(/C#N)c1nnc2n1-c1ccccc1SC2	4043
51	O=C(O)c1nn(Cc2ccc(Cl)cc2)c2ccccc12	3877
52	O=C1c2cc3c(cc2CCC1c1ccc2c(c1)OCO2)OCO3 (stereo unspecified)	3425
53	Cc1cc(/C=C(\C#N)C(=O)OCC(=O)N(C)c2c(N)n(Cc3ccccc3)c(=O)[nH]c2=O)c(C)n1CC(C)C	3586
54	COc1ccc(F)cc1S(=O)(=O)N1CCc2ccccc2C1	3599
55	COCc1cccc(-c2csc(C(O)c3ccccc3)n2)c1 (stereo unspecified)	2935
56	COc1ccc(-c2nc3ccc(C)cn3c2Cc2cccc(Cl)c2)cc1OC	5956
57	CCOc1ccc(CCN2C(=S)N([C@@H](Cc3ccc(O)cc3)CN3CCC[C@@H]3CN3C(=S)NC[C@@H]3CC(C)C)C[C@@H]2Cc2ccc(O)cc2)cc1	6502
58	Cc1ccc(S(=O)(=O)N2C[C@H]3C(=O)C[C@@H]4C(=O)N(c5ccccc5)C(=O)[C@@H]4[C@@H]3C[C@H]2c2cccs2)cc1	6329
59	CCOC(=O)C1(C)CCCCCN1C(=O)/C=C/c1ccccc1 (stereo unspecified)	3867
60	C[C@H]1CN([C@@H](C)CO)C(=O)CCCn2cc(nn2)CO[C@@H]1CN(C)C(=O)Nc1cccc(C(F)(F)F)c1	2940
61	O=C(NCc1ccc(F)c(F)c1)C1Cc2c(-c3ccc4c(c3)OCO4)ccnc2O1 (stereo unspecified)	3577
62	CC1CC(C)(C)C2=NCCN21 (stereo unspecified)	3923
63	O=S1(=O)N[C@@H](Cc2ccccc2)COc2cccc(N3CCSCC3)c21	5819
64	C[C@@H]1CN([C@H](C)CO)C(=O)CCCn2nncc2CO[C@H]1CN(C)C(=O)c1ccccc1	3415
65	CCCn1c(C)cc(C(=O)COC(=O)c2cc(=O)[nH]c3ccccc23)c1C	3545
66	C[C@@H]1CN([C@@H](C)CO)C(=O)CCCn2cc(nn2)CO[C@H]1CN(C)S(=O)(=O)c1ccc(-n2cccn2)cc1	3787
67	O=C1C(=Cc2ccc(Cl)cc2)CCc2ccccc21	6551
68	COc1cccc(C(C)(O)c2nc(-c3cc4ccccc4o3)cs2)c1 (stereo unspecified)	3818
69	O=C1C(=Cc2ccccc2O)SC(=S)N1CCCN1CCOCC1	4380
70	CC1(C)OC(=O)C2=C(C[C@@H](CCc3ccccc3)O[C@@H]2c2ccc(Cl)cc2)O1	4398
71	COc1ccccc1N1CCN(c2ccc3c(c2)S(=O)(=O)c2cccc(C(=O)NCc4ccc(F)cc4)c2C3=O)CC1	3973
72	Cc1ccc(C)c(C(O)c2ncc(-c3ccccc3F)[nH]2)c1 (stereo unspecified)	4259
73	C=CCOc1cccn2c(N(C)C(=O)c3ccncc3)c(CC)nc12	3036
74	COc1cc(NC(=O)C2CC(c3ccccc3O)=NO2)cc(OC)c1OC (stereo unspecified)	3346
75	O=C(NCCN1CCC(n2c(=O)[nH]c3ccccc32)CC1)c1ccc2ccccc2c1	7056

Further records follow:
nr	canonical_smiles	Autofluor counter
76	COc1ccc(NC(=O)COC(=O)c2ccc3c(c2)OCCO3)cc1	3933
77	CC(C)CC(N)c1csc(Nc2ccc(C(=O)NCCCO)cn2)n1 (stereo unspecified)	3918
78	C(=C\c1ccccc1)/CN1CCN(C(c2nnnn2-c2ccc3c(c2)OCCO3)C2CC2)CC1 (stereo unspecified)	6011
79	OC(c1ccc(F)c(F)c1)c1nc(-c2ccc(F)c(Cl)c2)cs1 (stereo unspecified)	3756
80	CCN(CC)C(=O)C1=C(C)N(Cc2ccc(OC)cc2)C(=O)C(CC(=O)NCCN2CCOCC2)C1 (stereo unspecified)	3579
81	CC(=O)Nc1cncc(-c2ccccc2CO)n1	3670
82	COc1ccccc1CN(C)C[C@H]1OCc2cnnn2CCCC(=O)N([C@@H](C)CO)C[C@@H]1C	4057
83	CC(C)N1CC2(CC(c3ccc(Cl)cc3Cl)=NO2)CN1C(=O)c1ccc(C(C)(C)C)cc1 (stereo unspecified)	3673
84	CCCS(=O)(=O)NC(=O)C1(C)CCCN(C(=O)c2ccc(C(F)(F)F)nc2C)C1 (stereo unspecified)	3866
85	N#Cc1ccc(S(=O)(=O)N2CCN(CN3C(=O)CC4(CCCC4)C3=O)CC2)cc1	3999
86	CC1(C(=O)Nc2nccs2)CCN1C(=O)CC(c1ccccc1)c1ccccc1 (stereo unspecified)	3963
87	Fc1cccc(-c2ccc3c(c2)CN(c2cccc(Cl)c2)Cc2cnnn2-3)c1	4571
88	CC1(C(=O)NS(=O)(=O)c2cccc(C#N)c2)CCN1C(=O)Cc1ccccc1Cl (stereo unspecified)	3893
89	COc1ccc(CN2C(=O)C(CC(=O)NCc3cccc4ccccc34)CC(C(=O)N(C(C)C)C(C)C)=C2C)cc1 (stereo unspecified)	5560
90	CC1(C(=O)NS(=O)(=O)c2cccc(F)c2)CCN1C(=O)c1ccco1 (stereo unspecified)	4051
91	CCNC(=O)C1(C)CCCN(C(=O)c2cccnc2Oc2ccccc2)C1 (stereo unspecified)	2748
92	CN(Cc1ccc(C(F)(F)F)cc1)C(=O)[C@H]1O[C@@H](n2cnc3c(N)ncnc32)[C@H](O)[C@@H]1O	4208
93	C[C@H]1CN([C@@H](C)CO)C(=O)c2cc(Br)cnc2O[C@H]1CN(C)C(=O)C1CC1	3574
94	C=CCOC(=O)N1CCC2CC1c1c(-c3ccc(C(F)(F)F)cc3)cccc12 (stereo unspecified)	5931
95	COCCCNC(=O)/C=C/[C@H]1O[C@@H](n2cnc3c(NC(=O)c4ccccc4)ncnc32)[C@H](O)[C@@H]1O	5646
96	CCOC(=O)[C@]12CCCC=C1N(Cc1cccc3ccccc13)C(=O)[C@H](CC(=O)NCCc1ccccc1OC)C2	4140
97	CCOC1=C2[C@@H](CN(S(=O)(=O)c3ccc(C)cc3)[C@H]2c2ccccc2F)[C@H]2C(=O)N(C3CCCCC3)C(=O)[C@H]2C1	6092
98	CC(C)=CCC[C@H](C)C[C@@H]1CC2=C(C(=O)OC(C)(C)O2)[C@H](c2ccc(Cl)cc2)O1	5379
99	NC(c1csc(Nc2ccc(C(=O)NCCCO)cn2)n1)C1CCCCC1 (stereo unspecified)	2979
100	O=C(CNc1cccc(Br)c1)Nc1ccc(S(=O)(=O)N2CCCCC2)cc1	3891
101	CC(C)C(N)c1csc(NC(=O)Nc2ccccc2C(C)(C)C)n1 (stereo unspecified)	2929
102	CN(C)c1ccc(-c2ccnc3c2CC(C)(C(=O)NCc2cccs2)O3)cc1 (stereo unspecified)	3807
103	COC(=O)[C@@]1(Cc2ccc(OC)cc2)[C@H]2c3cc(C(=O)N4CCCC4)n(Cc4ccsc4Br)c3C[C@H]2CN1C(=O)c1ccccc1	4426
104	CC1(C)OCC(N)(CO)CO1	3576
105	O=C(CCc1ccc(O)cc1)NN=Cc1cc(Br)ccc1O	3590
106	CN1CCN(C(=O)c2cc3c(c(-c4cccc(Br)c4)n2)[C@@H](CCO)N(S(=O)C(C)(C)C)C3)CC1 (stereo partly specified)	5786
107	Cc1ccc(C(=O)Nc2ccncc2)cc1S(=O)(=O)N1CCCCC1	2879

Among those listed so far, 3 contain a furan ring, fused or not.
nr	canonical_smiles	Autofluor counter
32	Cc1cccc(C)c1N1CCN(C(c2cc3ccccc3o2)c2nnnn2C(C)(C)C)CC1 (stereo unspecified)	6400
68	COc1cccc(C(C)(O)c2nc(-c3cc4ccccc4o3)cs2)c1 (stereo unspecified)	3818
90	CC1(C(=O)NS(=O)(=O)c2cccc(F)c2)CCN1C(=O)c1ccco1 (stereo unspecified)	4051

Random excerpt: 4 records from the list, in no set order.
nr	canonical_smiles	Autofluor counter
106	CN1CCN(C(=O)c2cc3c(c(-c4cccc(Br)c4)n2)[C@@H](CCO)N(S(=O)C(C)(C)C)C3)CC1 (stereo partly specified)	5786
104	CC1(C)OCC(N)(CO)CO1	3576
107	Cc1ccc(C(=O)Nc2ccncc2)cc1S(=O)(=O)N1CCCCC1	2879
102	CN(C)c1ccc(-c2ccnc3c2CC(C)(C(=O)NCc2cccs2)O3)cc1 (stereo unspecified)	3807
